From PubChem BioAssay
miR-21 reporter – qHTS Assay for Modulators of miRNAs and/orActivators of miR-21; HeLa miR-21 FLuc reporter, luciferase, 48 h; Potency, µM (top dose mostly 38.3 µM), without a hit: top-dose reporter change, positive = more light; 340,000 tested, under 10 active; AID 2288, 2010; active = well fitted rising curve with a large enough effect; inconclusive = small, poorly fitted or top-dose-only effect; inactive = no such curve, though single readings can be large or run the other way;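 further: % of control where 0% means no effect; miR-21 action dims this reporter so a rising signal means less miR-21 action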
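Luminescence from a firefly luciferase reporter carrying a miR-21 binding site downstream, stably expressed under a CMV promoter in HeLa cells that make miR-21 endogenously, reports miRNA modulation after 48 h compound exposure up to approximately 40uM final.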
Rango release inh – qHTS Assay for Inhibitors of RanGTP induced Rango (Ran-regulated importin-beta cargo) - Importin beta complex dissociation; 340,000 compounds, 0.071% hits; Potency, µM (top dose mostly 46.1 µM), for inactives: top-dose activity change, negative = inhibition; AID 540253, 2011; Biochemical FRET Rango-importin beta, RanGTP-induced dissociation; active means falling FRET ratio curve, often poorly fitted, with flat reads before Ran was added; inconclusive means other falling curves, or compound fluorescence or quenching; inactive means flat or rising ratio curve;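 further: potency means the concentration at half of the fitted maximal effect; % of control where 0% means no effect; nearly all actives have a fitted effect of over 45% in size; -100% = wells without RanGTP and RCC1; the record marks most hits as doubtful in a second field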
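Recombinant Rango FRET biosensor (EYFP–snurportin 1 IBB–cerulean CFP10) at 0.1 uM premixed with 0.25 uM importin beta in PBS, 1 mM DTT, 0.02% Tween-20, 0.1% BSA. Compound added 5 min; RanGTP-RCC1 (0.6 uM Ran, 2 mM GTP, 0.2 uM RCC1) then triggers release, read at 45 min.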
Rango complex inh – qHTS Assay for Inhibitors of Rango (Ran-regulated importin-beta cargo) - Importin beta complex formation; Importin subunit beta-1 (Homo sapiens), Q14974; Rango CFP/YFP FRET sensor + importin beta, 45 min; Potency, µM (titrated, usually from 92.2 µM), inactives show at the highest dose inhibition of complex formation; 340,000 compounds, 0.031% hits; AID 540263, 2011; active = rising FRET ratio curve, often small or poorly fitted; inconclusive = mostly compound fluorescence or quenching in the first reads; inactive = flat curves in all reads;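 further: potency means the concentration at half of the fitted maximal effect; 0% = DMSO wells and 100% = buffer wells lacking importin beta; nearly all actives have a fitted effect of over 15% in size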
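FRET biosensor (snurportin 1 IBB flanked by EYFP and cerulean), 50 nM, with compound 5 min, then 0.125 microM importin beta in PBS, 1 mM DTT, 0.02% Tween-20, 0.1% BSA. CFP/YFP ratio read after 45 min at room temperature; pre-read flags interference.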
GLA inh pH 4.5 – qHTS Assay for Inhibitors of Human alpha-Galactosidase at pH 4.5 | Alpha-galactosidase A (Homo sapiens), P06280 | purified enzyme, 4-MU-alpha-Gal fluorescence, pH 4.5 | activity change, negative = inhibition, % at 105 µM | 230,000 tested, under 10 active | AID 1467, 2008; inconclusive = small, poorly fitted or top-dose-only inhibition, or a rising curve; inactive = flat fitted curve, though single readings scatter; no compound was filed as active;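 further: 0% = full activity with enzyme and -100% = basal without enzyme; dose as in the result columns while the protocol names 77 µM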
Target sequence (P06280 whole entry, looked up): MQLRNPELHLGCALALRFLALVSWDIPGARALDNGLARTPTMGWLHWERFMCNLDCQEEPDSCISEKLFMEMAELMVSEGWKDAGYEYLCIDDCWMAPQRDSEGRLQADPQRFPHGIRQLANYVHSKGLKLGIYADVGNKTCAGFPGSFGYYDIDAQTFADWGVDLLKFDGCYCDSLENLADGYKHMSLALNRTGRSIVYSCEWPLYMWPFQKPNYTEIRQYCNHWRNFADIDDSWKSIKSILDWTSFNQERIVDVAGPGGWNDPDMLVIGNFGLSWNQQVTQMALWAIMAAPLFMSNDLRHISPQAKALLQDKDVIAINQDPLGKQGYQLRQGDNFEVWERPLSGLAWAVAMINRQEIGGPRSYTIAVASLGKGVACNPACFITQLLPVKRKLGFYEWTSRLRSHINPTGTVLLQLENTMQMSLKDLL
Starred values were filed as active, the others as inactive; & = joins results of further samples.

`CCOc1cccc(/C=N/NC(=S)NCCN2CCOCC2)c1O` gave miR-21 reporter 12%, Rango release inh -14%, Rango complex inh 0.2% and GLA inh pH 4.5 -1.
`CCOc1ccc(N2C(=O)/C(=C/c3ccccn3)SC2=S)cc1` gave miR-21 reporter -8%, Rango release inh 1%, Rango complex inh -2.1% and GLA inh pH 4.5 -6.
Screening CN(Cc1ccccc1)C(=O)CN1CCN(S(=O)(=O)c2ccc(Cl)c(Cl)c2)CC1 returned Rango release inh 0% and Rango complex inh -1.1%.
For O=[N+]([O-])c1ccc(/C=N/Nc2nc(N3CCCCC3)nc(N3CCCCC3)n2)cc1 the results were miR-21 reporter -1%, Rango release inh -12%, Rango complex inh 3.0% and GLA inh pH 4.5 1.
For N#CC1=C(N)Oc2cc(N)ccc2C1c1ccc(F)cc1 (stereo not given) the results were miR-21 reporter 4%, Rango release inh inconclusive, Rango complex inh inconclusive and GLA inh pH 4.5 -7.
`O=P(Cc1ccccc1)(c1ccccc1)c1ccccc1` gave miR-21 reporter -5%, Rango release inh 20%, Rango complex inh -0.2% and GLA inh pH 4.5 3.
For CCSc1ccccc1C(=O)Nc1nc2ccccc2c(=O)[nH]1 the results were miR-21 reporter 3%, Rango release inh -1%, Rango complex inh -4.5% and GLA inh pH 4.5 -12.
Screening CC1(C)CC(=O)c2cc(N=C/C(C(=O)c3ccccc3)=C(\O)c3ccccc3)c(=O)oc2C1 returned miR-21 reporter -43%, Rango release inh -9%, Rango complex inh 0.2% and GLA inh pH 4.5 -8.
COc1ccc(C)cc1NC(=O)CSc1nnc(-c2cc(C)[nH]n2)n1N was read as miR-21 reporter -10%, Rango release inh 6% and Rango complex inh 0.2%.
For CCC(C)(C)NC(=O)C(OC(=O)c1ccco1)c1ccc(OC)cc1 (stereo not given) the results were miR-21 reporter 1%, Rango release inh 2% and Rango complex inh 0.6%.
`O=C(CSc1ccccc1)NCC(c1ccco1)N1CCCCC1` (stereo not given) gave Rango release inh 3% and Rango complex inh -1.8%.
Screening O=C(Nc1ccccc1)NC1CCN(CCCN2C(=O)c3ccccc3C2=O)CC1 returned miR-21 reporter -3%, Rango release inh 7%, Rango complex inh 1.0% and GLA inh pH 4.5 -4.
Screening CCCCN(CCCC)CCCNC(=O)C1CC(c2ccc(C(F)(F)F)cc2)=NO1 (stereo not given) returned miR-21 reporter -2%, Rango release inh 16%, Rango complex inh 1.4% and GLA inh pH 4.5 -21.
CC(C)C(NC(=O)c1ccc(S(=O)(=O)N2CCOCC2)cc1)c1nc2ccccc2[nH]1 (stereo not given) was read as miR-21 reporter -3%, Rango release inh 0%, Rango complex inh -3.7% and GLA inh pH 4.5 -9.
For COCCN(CCOC)C(=O)CN1C(=O)NC2(CCCc3sccc32)C1=O (stereo not given) the results were miR-21 reporter 0%, Rango release inh 7% and Rango complex inh 4.3%.

A section taken from the entries so far:
`CCOc1cccc(/C=N/NC(=S)NCCN2CCOCC2)c1O` gave miR-21 reporter 12%, Rango release inh -14%, Rango complex inh 0.2% and GLA inh pH 4.5 -1.
`CCOc1ccc(N2C(=O)/C(=C/c3ccccn3)SC2=S)cc1` gave miR-21 reporter -8%, Rango release inh 1%, Rango complex inh -2.1% and GLA inh pH 4.5 -6.
Screening CN(Cc1ccccc1)C(=O)CN1CCN(S(=O)(=O)c2ccc(Cl)c(Cl)c2)CC1 returned Rango release inh 0% and Rango complex inh -1.1%.
For O=[N+]([O-])c1ccc(/C=N/Nc2nc(N3CCCCC3)nc(N3CCCCC3)n2)cc1 the results were miR-21 reporter -1%, Rango release inh -12%, Rango complex inh 3.0% and GLA inh pH 4.5 1.
For N#CC1=C(N)Oc2cc(N)ccc2C1c1ccc(F)cc1 (stereo not given) the results were miR-21 reporter 4%, Rango release inh inconclusive, Rango complex inh inconclusive and GLA inh pH 4.5 -7.

The list continues.
`CSc1ccccc1C(=O)C1CCCN(S(=O)(=O)N(C)C)C1` (stereo not given) gave miR-21 reporter -7%, Rango release inh 13%, Rango complex inh -0.4% and GLA inh pH 4.5 -1.
`CCN(CC)C(=O)c1ccc(NS(=O)(=O)c2ccccc2)cc1` gave miR-21 reporter 4%, Rango release inh -18%, Rango complex inh 0.7% and GLA inh pH 4.5 5.
CCCCN1CNC(=S)N(CCc2ccc(OCC)c(OCC)c2)C1 was read as miR-21 reporter -2%, Rango release inh -17%, Rango complex inh -5.3% and GLA inh pH 4.5 0.
`CCC(C(=O)NCc1ccc(C)cc1)c1ccccc1` (stereo not given) gave miR-21 reporter -4%, Rango release inh 15% and Rango complex inh 4.8%.
`COCCNC(=O)CN1CCOc2ccccc21` gave miR-21 reporter -3%, Rango release inh 0%, Rango complex inh 0.5% and GLA inh pH 4.5 -7.
`CC[N+]1(C)CC2CCC(C)(C1)C2(C)C` (stereo not given) gave miR-21 reporter 0%, Rango release inh 0%, Rango complex inh 5.3% and GLA inh pH 4.5 -8.
Cc1cccc(OCC(=O)Nc2ccc(C(=O)Nc3ccccc3C(=O)O)cc2)c1C was read as miR-21 reporter -6%, Rango release inh -5% and Rango complex inh -1.2%.
For CCN(Cc1ccc2c(c1)OCCO2)C(=O)CN1C(=O)NC2(CCCCC2)C1=O the results were Rango release inh 7% and Rango complex inh 0.1%.
For C=CCNC(=O)/C(C#N)=C/c1ccc(SC)cc1 the results were miR-21 reporter -15%, Rango release inh 4%, Rango complex inh 3.0% and GLA inh pH 4.5 -9.
Screening COc1ccc(CCC(=O)NNC(=O)c2cc(Cl)ccc2OC)cc1 returned miR-21 reporter -8%, Rango release inh 12% and Rango complex inh -2.3%.
O=C(O)c1ccc(NC(=S)Nc2ccccc2)cc1 was read as miR-21 reporter -30%, Rango release inh 21%, Rango complex inh 5.0% and GLA inh pH 4.5 -10.
Screening CCCOc1ccc(N2C(=O)CC(SCC(N)C(=O)OCC)C2=O)cc1 (stereo not given) returned miR-21 reporter -6%, Rango release inh inconclusive and Rango complex inh 0.0%.
Cc1nc(NCCO)c(C#N)c2c1COC(C)(C)C2 was read as miR-21 reporter -3%, Rango release inh -11%, Rango complex inh -1.3% and GLA inh pH 4.5 5.
`CCCN1Cc2cccc(C(=O)NCc3ccc4c(c3)OCO4)c2C1=O` gave miR-21 reporter -2%, Rango release inh 10%, Rango complex inh 0.8% and GLA inh pH 4.5 -5.
For O=C(O)c1ccccc1-c1nc2ccccc2c(=O)n1O the results were miR-21 reporter -3%, Rango release inh inconclusive, Rango complex inh -2.9% and GLA inh pH 4.5 2.
`CCC(CC)C(=O)Nc1cccc(C(=O)Nc2ccc(S(=O)(=O)Nc3ccc(C)cc3)cc2)c1` gave miR-21 reporter inconclusive, Rango release inh -18%, Rango complex inh -3.8% and GLA inh pH 4.5 -1.
For O=C(N/N=C/c1ccc(Br)o1)c1cc([N+](=O)[O-])cc([N+](=O)[O-])c1 the results were miR-21 reporter -1%, Rango release inh 6%, Rango complex inh 2.9% and GLA inh pH 4.5 0.
Screening Cc1ccc(C)c(CS(=O)(=O)c2cn(CC(=O)N3CCC(C)CC3)c3ccccc23)c1 returned miR-21 reporter 22%, Rango release inh 14%, Rango complex inh -5.0% and GLA inh pH 4.5 -6.
Screening CCC(CC)CN1CCC(CN2C(=S)NC[C@@H]2[C@@H](C)CC)CC1 returned Rango release inh 19% and Rango complex inh 2.7%.
Screening CCOC(=O)c1ccc(Nc2nnc3nc(C)cc(C)n23)cc1 returned miR-21 reporter -13%, Rango release inh -8%, Rango complex inh -3.0% and GLA inh pH 4.5 4.
CC(=O)Nc1ccccc1NC(=O)CC(C)(C)C was read as miR-21 reporter -6%, Rango release inh 9%, Rango complex inh -1.9% and GLA inh pH 4.5 6.
For COc1ccc(-c2csc(NC(=O)CCCc3nc4ccccc4c(=O)[nH]3)n2)cc1OC the results were Rango release inh -12% and Rango complex inh 0.9%.
Screening CC(Oc1ccc(Cl)cc1Cl)C(=O)NCCCn1ccnc1 (stereo not given) returned miR-21 reporter -6%, Rango release inh -6%, Rango complex inh -1.9% and GLA inh pH 4.5 6.
Cc1ccc(NC(=O)CCNS(=O)(=O)c2ccc3[nH]c(=O)oc3c2)cc1N(C)C was read as miR-21 reporter 3%, Rango release inh -6% and Rango complex inh 3.1%.
For O=C(CCNS(=O)(=O)c1ccc(Br)cc1)NCCc1ccc(Cl)cc1 the results were miR-21 reporter 14%, Rango release inh 9% and Rango complex inh inconclusive.
Screening Cc1ccsc1C(=O)OCC(=O)Nc1cccc(F)c1 returned Rango release inh 19% and Rango complex inh -2.7%.
NC(=O)c1ccc(-n2nnnc2SCC(=O)Nc2ccccc2)cc1 was read as miR-21 reporter -3%, Rango release inh 14% and Rango complex inh 0.0%.
Cc1ccc(S(=O)(=O)N2CCCN(C(=O)c3cc4ccccc4[nH]3)CC2)cc1 was read as miR-21 reporter -20%, Rango release inh 6% and Rango complex inh 3.6%.
For CCOC(=O)c1c(C)oc2c1c1c(c3ccccc32)OCN(Cc2cccnc2)C1 the results were miR-21 reporter -56%, Rango release inh -7%, Rango complex inh -3.7% and GLA inh pH 4.5 -10.
CCN(CC)CCn1c(C)nc2ccccc21 was read as miR-21 reporter -3%, Rango release inh 23%, Rango complex inh 4.9% and GLA inh pH 4.5 -2.
CC(OC(=O)c1ccncc1)C(=O)Nc1cccc([N+](=O)[O-])c1 (stereo not given) was read as miR-21 reporter 2%, Rango release inh -5%, Rango complex inh -1.5% and GLA inh pH 4.5 -13.
For CSc1ccc(/C=N/n2c(C)nc3ccccc3c2=O)cc1 the results were miR-21 reporter -6%, Rango release inh -8% and Rango complex inh 5.0%.
Cc1nn(Cc2ccc(Cl)cc2Cl)c(C)c1NC(=O)c1sc2ccccc2c1Cl was read as miR-21 reporter -2%, Rango release inh -11%, Rango complex inh -0.9% and GLA inh pH 4.5 -3.
For CCOCCCNC(=O)/C(C#N)=C/c1cc(Br)c(O)c(Br)c1 the results were miR-21 reporter 29%, Rango release inh inconclusive, Rango complex inh inconclusive and GLA inh pH 4.5 -6.
COc1ccc(O)c(CN2CCCC(N3CCN(c4ccc(F)cc4)CC3)C2)c1 (stereo not given) was read as miR-21 reporter 14%, Rango release inh -19% and Rango complex inh 1.9%.
Screening Cc1ccc(/C=C/C(=O)OCC(=O)NCc2ccccc2)o1 returned Rango release inh 14% and Rango complex inh -2.4%.
`COc1ccc(CCNC(=S)N2CCN(S(=O)(=O)c3ccc(F)cc3)CC2)cc1` gave Rango release inh 3% and Rango complex inh 4.7%.
`CC1=NC(C)(C)CC2CCC(O)C12` (stereo not given) gave Rango release inh -1% and Rango complex inh 3.7%.
Screening COc1nc(-c2ccc3c(c2)OCO3)n(-c2ccc(NC(=O)CSc3ccccc3)cc2)n1 returned Rango release inh -7% and Rango complex inh 0.2%.
O=C1Nc2ccccc2C1=Nc1ccc(-c2nnc3n2CCCCC3)cc1 was read as miR-21 reporter -2%, Rango release inh -1%&-12%, Rango complex inh -2.7%&-3.5% and GLA inh pH 4.5 0.
Cc1ccc(-c2nnn(CC(=O)N(c3ccc(F)cc3)C(C(=O)NC3CCCC3)c3ccco3)n2)o1 (stereo not given) was read as miR-21 reporter -1%, Rango release inh 1%, Rango complex inh 1.7% and GLA inh pH 4.5 4.
`COCCC(=O)N1CCC(Oc2ccc(C(=O)NCc3ncc(C)[nH]3)cc2)CC1` gave miR-21 reporter -3%, Rango release inh 1% and Rango complex inh -0.4%.
`COCC(=O)N(Cc1cc2ccc(C)c(C)c2n2nnnc12)C1CCCC1` gave miR-21 reporter -1%, Rango release inh 3%, Rango complex inh -0.1% and GLA inh pH 4.5 4.
`CC(=O)NCc1ccc(S(=O)(=O)N2CCN(c3ccccn3)CC2)cc1` gave miR-21 reporter -3%, Rango release inh 42% and Rango complex inh -0.6%.
For Cc1ncoc1C(=O)N1CCc2c([nH]c3ccccc23)C1c1ccccc1F (stereo not given) the results were miR-21 reporter -4%, Rango release inh 6%, Rango complex inh -0.5% and GLA inh pH 4.5 -26.

This is a subset. The share of hits here may be higher or lower than overall.
